Screening results: PubChem, several laboratories
ALR inh = blocks human ALR sulfhydryl oxidase activity. P55789. 290,000 compounds, 3.8% hits. purified ALR, DTT oxidation, H2O2 HRP-luminol luminescence. inhibition, % (test concentration not listed). AID 485317;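 active = mean and each replicate at 75% or more; inconclusive = only one of the two met; inactive = neither met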;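 note: stock transfer was 7.5 nL into about 7.5 µL; 0% = neutral wells and 100% = wells with inactivated enzyme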
Target sequence (P55789 whole entry, looked up): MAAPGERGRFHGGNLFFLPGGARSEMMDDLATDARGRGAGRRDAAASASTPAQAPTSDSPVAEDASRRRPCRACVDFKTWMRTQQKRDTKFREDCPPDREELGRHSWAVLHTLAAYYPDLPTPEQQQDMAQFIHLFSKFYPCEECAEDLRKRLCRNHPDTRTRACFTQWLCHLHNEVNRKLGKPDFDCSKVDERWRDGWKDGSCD
HNF4A DNA FP = change in binding of human HNF4 alpha to DNA | P41235 | activity change, % at 10 µM | HNF4a-FITC DNA binding, fluorescence polarization, 1 h | AID 1224865 | 360,000 compounds, 0.3% hits; in the data active = activity change above about 30%, passing the limit was not always enough;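 note: controls were the assay level and a saturating level of protein; the project sought stronger binding though the title names inhibitors; some compounds called inactive have numbers as strong as hits; positive values seem to mean higher polarization but the record does not say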
Target sequence (P41235 whole entry, looked up): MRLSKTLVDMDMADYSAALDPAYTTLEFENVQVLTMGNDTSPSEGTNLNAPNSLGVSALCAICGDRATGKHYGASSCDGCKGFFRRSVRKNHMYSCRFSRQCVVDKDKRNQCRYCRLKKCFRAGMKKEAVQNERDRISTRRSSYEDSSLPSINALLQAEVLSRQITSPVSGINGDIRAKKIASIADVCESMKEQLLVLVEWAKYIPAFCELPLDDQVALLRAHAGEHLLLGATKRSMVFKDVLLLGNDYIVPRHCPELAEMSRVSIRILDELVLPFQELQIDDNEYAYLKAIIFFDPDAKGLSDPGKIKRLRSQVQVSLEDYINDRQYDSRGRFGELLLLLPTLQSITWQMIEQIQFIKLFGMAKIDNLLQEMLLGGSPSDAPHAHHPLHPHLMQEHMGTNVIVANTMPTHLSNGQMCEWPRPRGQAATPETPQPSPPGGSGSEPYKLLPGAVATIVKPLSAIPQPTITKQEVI
FGF22 binding = FGF22 (human) thermal shift binding; Q9HCT0; recombinant FGF22 thermal shift, SYPRO orange fluorescence; percent of sucrose octasulfate shift, DMSO zero; calls only at 9.99 µM; 340,000 compounds, 1.5% hits; AID 651658;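 active = melting point raised past a set limit in the mean and every replicate; inconclusive = no clear call; three in four hits are not shown here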
Target sequence (Q9HCT0 whole entry, looked up): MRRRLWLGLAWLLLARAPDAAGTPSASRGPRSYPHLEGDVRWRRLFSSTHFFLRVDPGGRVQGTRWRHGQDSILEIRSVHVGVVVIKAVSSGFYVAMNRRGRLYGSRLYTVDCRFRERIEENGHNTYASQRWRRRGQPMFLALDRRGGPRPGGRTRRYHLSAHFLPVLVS
rRNA inh HTS = inhibits bacterial ribosomal RNA function over humanized ribosomes; E. coli WT GFP vs humanized-ribosome RFP mutants, fluorescence, 24 h; hits give low values; DMSO median 0, no signal -100; GFP signal change (wild-type ribosome), % (no concentration beside the values); 350,000 compounds, 1.6% hits;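 active = significant combined selectivity score with lowered wild-type GFP, culture density cut under 30%, mutant RFP and density less affected; inactive = any of these conditions unmet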; note: one replicate is shown; some compounds called inactive have numbers as strong as hits
Ecoli growth = blocks Escherichia coli growth; OD600, 23 h; hits give low values; OD600 absorbance (no concentration beside the values); 330,000 compounds, 0.21% hits; AID 1053175;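 active = OD600 absorbance below the run mean of sample wells minus 3.6 SD, in any replicate, cut at about 0.56 in these data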;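 note: stock transfer was 300 nL into about 60 µL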
Vif A3G = inhibitors of Vif binding to APOBEC3G peptide, primary screen, biochemical, TR-FRET, GST-Vif 1-94, biotin-A3G peptide, dose response retest (AID 1117319) | TR-FRET GST-Vif / biotin-A3G peptide binding; higher % means a stronger effect; test concentration not given here; strong numbers were not always called active | inhibition, %; hits with a dose series show IC50 in µM | 260,000 compounds, 0.57% hits;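 active = above the screen mean plus three standard deviations and confirmed in dose response; inconclusive = results disagree or hit not tested in dose response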;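 note: Vif residues 1-94 fused to GST binding biotinylated APOBEC3G peptide 110-148; 0% = full assay without inhibitor and 100% = GST in place of GST-Vif; retest series ran down from 100 µM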
AF4-AF9 inh = inhibitors of human MLL-AF4/AF9 interaction. P42568. AlphaScreen, biotin-AF4 peptide binding to FLAG-AF9. inhibition, % at 10 µM. 350,000 compounds, 0.47% hits;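 active = every replicate reaching a set inhibition limit, whatever the replicate mean, cut at about 25% in these data; inconclusive = mean inhibition reaches that limit but some replicates miss it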;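 note: 0% = plate neutral control median and 100% = total signal loss; the record names both 10 and 1 µM as test concentration; the first replicate is given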
rRNA inh HTS OD600 = recorded beside rRNA inh HTS, whose call it bears; OD600 change, %; measured here: OD600 growth;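 optical density of the mix in the first replicate; 0 = DMSO median and -100 = no signal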
rRNA inh HTS RFP = recorded beside rRNA inh HTS, whose call it bears; RFP signal change, %; measured here: RFP humanized mutant strains;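 first replicate; 0 = DMSO median and -100 = no signal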
* marks the source's active call; other numbers are inactive results; i = inactive; u = inconclusive; x = not tested or not shown; & = joins results of further samples. The list is partial (hit frequency here may not be typical).

SMILES	ALR inh	HNF4A DNA FP	FGF22 binding	rRNA inh HTS	rRNA inh HTS OD600	rRNA inh HTS RFP	Ecoli growth	Vif A3G	AF4-AF9 inh
CC(C)(C)c1ccc(NNC(=O)C2CCC2)cc1	-3.7	-1.4	i	6.9	8.9	-2.2	x	-6.6%	0.7
Cc1ccc(-c2csc(NC(=O)CSc3nnc4c(n3)[nH]c3ccccc34)n2)cc1	-0.1	0.3	x	x	x	x	0.733	-2.1%	x
CCOc1ccc(NC(=O)CCCN2C(=O)C(c3ccccc3)Oc3cccnc32)cc1 (centres undefined)	-8.3	-1.5	i	-1.3	3.3	4.6	0.72	-3.0%	0.9
N#C[C@H]1[C@@H](c2ccccc2C2=CCCCC2)[C@@H](CO)N1C(=O)CN1CCOCC1	x	x	i	-0.2	3.7	0.3	x	x	0.5
CCOC(=O)C(C(=O)NCc1ccc(C)cc1)c1ncc(C(F)(F)F)cc1Cl (centres undefined)	-0.7	-0.8	x	x	x	x	0.716	-1.9%	x
CC(=O)c1ccccc1NCC(=O)Nc1ccc(C)cc1	45.3	-3.4	i	9.7	13.7	13.6	0.723	-3.7%	-1.2
O=C(Cn1nnc2ccccc21)Nc1ccc([N+](=O)[O-])cc1	-1.9	3.4	i	4.2	5.0	-1.9	0.68	9.0%	-5.9
COc1ccc(OCC(=O)NCCNC(=O)c2cccnc2)cc1	-5.1	1.6	i	-4.8	2.3	1.6	0.695	x	-1.3
COCc1[nH]nc2c1C(c1ccc(F)cc1F)C(C#N)=C(N)O2 (centres undefined)	4.7	3.0	x	x	x	x	0.723	11.6%	x
O=C(NCc1cccs1)c1cccc(S(=O)(=O)N2CCCCC2)c1	-1.9	-3.3	x	x	x	x	0.747	-0.7%	x
CN1C(=O)C(N=Nc2ccc([N+](=O)[O-])cc2)SC1=S (centres undefined)	x	8.3	i	-18.9	-8.6	-5.7	0.449*	-18.7%	43.8*
COc1cccc(CNc2nc3cc(-c4cccc(OC)c4)sc3c(=O)n2C)c1	x	-1.3	i	6.2	11.0	-2.4	x	x	-1.7
C[C@@H]1CN([C@@H](C)CO)C(=O)c2cc(-c3ccc(F)cc3)cnc2O[C@@H]1CN(C)C(=O)CN(C)C	x	x	i	3.1	15.6	-3.7	x	x	-1.3
CC(NS(=O)(=O)c1ccc(Br)s1)c1ccccc1 (centres undefined)	-13.8	7.6	i	-5.8	-39.0	0.9	0.672	-6.7%	0.4
Cc1ccc(S(=O)(=O)N(CC(=O)NCc2ccncc2)Cc2ccc(F)cc2)cc1	-8.9	0.2	i	-5.6	-14.5	2.8	0.707	4.2%	-0.7
O=C(CCc1nc2ccccc2c(=O)[nH]1)Nc1nnc(SCc2ccc(Cl)cc2)s1	-4.8	14.4	i	-21.8	-25.9	0.6	0.632	-14.1%	-1.3
COc1cccc(OC)c1C(=O)NC(=S)Nc1cc(-c2nc3ccccc3[nH]2)ccc1Cl	29.9	4.5	i	x	x	x	0.724	x	-20.1
Cc1c(Cl)c([N+](=O)[O-])nn1CC(=O)NC(C)c1ccccc1 (centres undefined)	-19.6	1.3	i	-8.8	-5.0	-6.6	0.665	x	3.9
COc1ccc(COC(=O)NC2CCN(S(=O)(=O)c3ccc(OC)cc3)CC2)cc1	-1.1	0.1	x	x	x	x	0.678	-1.1%	x
O=[N+]([O-])c1ccc(CSc2nnc(-c3cccnc3)o2)cc1	2.9	3.5	i	1.6	13.3	0.6	0.646	x	2.8
CC(C)C(N)c1csc(Nc2cc(Oc3ccccc3)ncn2)n1 (centres undefined)	x	-1.0	i	0.6	-7.3	1.0	x	x	6.5
O=C(CCC(=O)N1CCSc2ccccc21)NC1CCCCC1	1.3	4.3	i	1.0	6.4	-1.4	0.678	x	-1.3
COc1cc2c(cc1OC)C(c1ccc(Br)cc1)CC(=O)N2 (centres undefined)	-13.0	-5.1	i	0.6	-1.6	-5.3	0.659	x	5.0
C[C@H]1CN([C@@H](C)CO)C(=O)c2cc(C3=CCCCC3)cnc2O[C@@H]1CN(C)Cc1ccccc1	x	x	i	-1.0	8.9	2.1	x	x	2.2
Cc1ccc(C(=O)CN2C(=O)c3ccccc3S2(=O)=O)cc1	-17.6	-2.7	i	8.2	12.6	1.3	x	-6.5%	x
Cc1[nH]c(=O)nc(SCc2ccc(Cl)c(Cl)c2)c1C#N	-25.9	-2.1	i	0.8	0.5	9.1	0.695	-4.3%	-8.4
Cc1ccsc1C(=O)NNC(=O)C1C2C=CC(C2)C1C(=O)O (centres undefined)	15.4	1.4	i	3.1	-3.1	1.0	0.695	-4.2%	3.6
COc1ccc(S(=O)(=O)N2CCCCN3[C@@H](CO)[C@@H](c4ccc(C5=CCCC5)cc4)[C@@H]3C2)cc1	x	x	i	-56.5	-69.2	-8.8	x	x	12.1
COc1ccc2c3c(n(C)c2c1)[C@H](CO)N(Cc1ccc(Cl)cc1)CC31CCN(CC2CC2)CC1	x	x	i	-46.2	-65.7	27.0	x	x	29.5*
COc1cc2c[n+](C)c3c4ccccc4ccc3c2cc1OC	x	-16.0	i	x	x	x	x	0.2%	-1.8
O=[N+]([O-])c1ccc(Oc2ccc(OCc3ccccc3)cc2)nc1	-21.8	1.3	i	-8.2	-11.1	-0.6	0.683	4.1%	1.8
COc1ccc(OCC(=O)NCCCCCCNC(=O)COc2ccc(OC)cc2)cc1	-2.8	-4.3	i	15.3	11.4	4.4	0.674	x	-2.9
CC(C(=O)NC(=O)NCc1ccccc1)N1C(=O)c2ccccc2C1=O (centres undefined)	-14.6	-1.8	x	x	x	x	0.697	-0.4%	x
C[C@@H]1CN([C@H](C)CO)C(=O)c2cc(NC(=O)CCN3CCOCC3)ccc2O[C@H]1CN(C)Cc1ccncc1	x	x	i	1.7	8.0	-2.2	x	x	-3.0
O=C(CCCCCn1nnc2ccccc2c1=O)Nc1ccccc1F	-9.6	-2.3	i	10.4	10.5	2.6	0.641	0.3%	0.8
O=C(NCc1ccccc1)c1ccc(C(=O)N(C2CCCCC2)C2CCCCC2)cc1	-55.1	0.7	x	x	x	x	0.708	-5.2%	x
COc1cccc(NC(=S)Nc2ccc(O)cc2)c1	99.1*	-1.8	i	1.8	5.5	3.4	0.69	10.7%	12.5
COCCCNC(=O)COc1cc2c(c3oc(=O)c(C)c(C)c13)CCC(C)(C)O2	-2.4	-0.8	i	-10.7	-14.3	0.5	0.678	-8.9%	-3.9
CC(C)CCNC(=O)CCSCCC(=O)NCCC(C)C	-3.0	-1.9	i	x	x	x	0.713	-1.8%	-0.9
COc1ccc(NC(=O)C2(C)CCN2CCOc2ccccc2)cc1OC (centres undefined)	x	3.5	i	-0.5	-11.7	-0.1	x	x	-2.4
COc1ccc2c3c(c(=O)oc2c1OCC(=O)C(C)(C)C)CCCC3	1.2	0.2	x	x	x	x	0.751	4.2%	x
C#CCOCCOCCOCCNc1nc(N2CCN(C(=O)[C@H](CO)n3cc([C@@H](N)C(C)C)nn3)CC2)nc(N2CCN(C(=O)[C@H](CO)n3cc([C@@H](N)C(C)C)nn3)CC2)n1	x	8.3	i	3.6	-1.6	4.1	x	x	u
CSc1cccc(NC(=O)c2nnn(CC(=O)Nc3cc(C)cc(C)c3)c2N)c1	-10.6	-2.3	i	-0.3	1.7	-5.1	0.691	2.7%	0.4
CN1[C@@H]2c3ccc(-c4ccccc4F)c(=O)n3C[C@@H]2[C@@H](CO)[C@@H]1C(=O)NCc1ccc(F)cc1	x	x	i	-4.8	2.7	1.6	x	x	-2.6
O=c1c2ccccc2n2c(-c3ccc(C(F)(F)F)cc3)nnc2n1Cc1ccccc1	-11.6	0.5	i	7.1	2.1	-3.1	0.72	x	9.4
COc1ccc(C2SCCN2S(=O)(=O)c2ccc(F)cc2)cc1OC (centres undefined)	0.0	-1.9	x	-9.9	-8.2	2.4	0.704	-7.2%	x
CCCCCCCCNC(C)C(O)c1ccc(SC(C)C)cc1 (centres undefined)	-18.7	-0.8	i	x	x	x	x	13.7%	5.5&4.4
CO[C@H]1CN(C)C(=O)c2cc(NC(=O)C3CCCC3)ccc2OC[C@@H](C)N(CC2CC2)C[C@@H]1C	x	x	i	0.4	-1.7	-2.7	x	x	0.1
NC(=O)c1ncc(C(F)(F)F)cc1Oc1ccc(C(F)(F)F)cc1	-0.1	-2.9	x	x	x	x	0.77	17.8%	x
COc1ccc2c3c(n(C)c2c1)[C@@H](CO)N(C)CC31CCN(C(=O)Nc2c(C)noc2C)CC1	x	x	i	1.0	12.0	-2.5	x	x	-18.4

(further entries)
SMILES	ALR inh	HNF4A DNA FP	FGF22 binding	rRNA inh HTS	rRNA inh HTS OD600	rRNA inh HTS RFP	Ecoli growth	Vif A3G	AF4-AF9 inh
O=C(CN1CCCC1)N1CCN(c2ccccc2)CC1	23.5	1.2	i	8.8	7.7	-1.4	0.676	9.3%	0.5
Cc1ccc(NC(=O)C2=CC(c3ccc(C)cc3)=NS(=O)(=O)N2C)cc1	-3.6	-1.3	i	1.0	11.7	5.3	0.684	x	0.4
C[C@@H]1CN([C@@H](C)CO)S(=O)(=O)c2ccc(C#Cc3cccnc3)cc2O[C@H]1CN(C)C	x	x	i	1.1	1.0	0.7	x	x	-0.8
COC(=O)Cn1c(=NC(=O)c2cccc(OC)c2)sc2cc(OC)ccc21	x	0.5	x	x	x	x	0.718	-8.9%	x
Cn1c(=N)c(S(=O)(=O)c2ccc(F)cc2)cc2c(=O)n3ccccc3nc21	-7.2	0.6	x	x	x	x	0.666	26.2%	x
CCCC(=O)N1CCC2(CC1)CN(C(=O)Cc1ccccn1)[C@@H](CO)c1[nH]c3cc(OC)ccc3c12	x	x	i	-0.6	10.6	-2.1	x	x	1.7
O=C(O)CCC(=O)c1ccc2ccc3cccc4ccc1c2c34	86.8*	x	i	-35.5	-74.9	-4.9	x	u	u
Cn1c(SCC(=O)N/N=C/c2ccncc2)nc2ccccc21	-11.8	-2.5	i	6.4	1.7	4.2	x	3.6%	-0.2
C/C(=C\c1ccccc1)C(=O)NCCN1CCOCC1	-2.4	0.6	x	x	x	x	0.701	-2.0%	x
O=C1CC2(CCN(C(=O)c3cccc([N+](=O)[O-])c3)CC2)Oc2ccccc21	x	3.0	i	0.2	2.3	-0.6	0.693	9.2%	1.7

Brought forward from above: 2 compounds, followed by the next part.
SMILES	ALR inh	HNF4A DNA FP	FGF22 binding	rRNA inh HTS	rRNA inh HTS OD600	rRNA inh HTS RFP	Ecoli growth	Vif A3G	AF4-AF9 inh
C/C(=C\c1ccccc1)C(=O)NCCN1CCOCC1	-2.4	0.6	x	x	x	x	0.701	-2.0%	x
O=C1CC2(CCN(C(=O)c3cccc([N+](=O)[O-])c3)CC2)Oc2ccccc21	x	3.0	i	0.2	2.3	-0.6	0.693	9.2%	1.7
COc1ccc(C(=O)CCN2CCc3cc(OC)c(OC)cc3C2)cc1	97.9*	1.6	i	0.8	-0.2	2.4	0.682	-2.6%	2.6
CC(=O)NC(C)c1ccc(Cl)c(Cl)c1 (centres undefined)	0.8	1.2	x	x	x	x	0.694	12.4%	x
CC(=O)Nc1ccc(NC(=O)COC(=O)[C@@H](NC(=O)c2ccc(F)cc2)C(C)C)cc1	-0.5	0.0	i	1.5	5.8	-1.6	0.718	-0.5%	0.7
CC1(C(=O)NCc2ccco2)Cc2c(-c3ccc4c(c3)OCO4)ccnc2O1 (centres undefined)	x	1.6	i	10.2	0.3	-2.2	x	x	-2.7
O=C1COCCOCCOCC(=O)NCCN1	-9.6	-1.9	i	17.9	12.1	2.6	0.676	12.2%	0.8
COc1cc2c(cc1NC(=O)/C=C/c1cc(OC)c(OC)c(OC)c1)oc1ccccc12	-6.2	2.0	i	2.8	8.2	11.0	0.734	14.1%	5.4
Cc1ccc(NC(=O)Nc2nnc([C@H]3C[C@H](O)[C@@H](CO)O3)s2)cc1	x	-1.4	i	-1.6	2.6	-1.2	x	x	0.1
